Bioassay records (PubChem BioAssay)
WNV protease inh = blocks West Nile virus NS2B-NS3 protease activity; z-score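 (tested at a level between 10 and 100 µM)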; WNV NS2B-NS3 protease, fluorogenic substrate Ex360/Em465; stronger effect = lower value; 65,000 tested, 0.18% active;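 active = z-score at -3 or under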;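 also: score is relative to mean and spread of the compound wells of a plate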
Target sequence (P06935 1371-1501 limits assumed): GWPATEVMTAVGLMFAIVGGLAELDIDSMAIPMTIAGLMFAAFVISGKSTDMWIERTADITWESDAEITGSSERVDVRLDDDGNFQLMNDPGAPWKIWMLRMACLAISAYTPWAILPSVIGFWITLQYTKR
Target sequence (P06935 1502-1679 limits assumed): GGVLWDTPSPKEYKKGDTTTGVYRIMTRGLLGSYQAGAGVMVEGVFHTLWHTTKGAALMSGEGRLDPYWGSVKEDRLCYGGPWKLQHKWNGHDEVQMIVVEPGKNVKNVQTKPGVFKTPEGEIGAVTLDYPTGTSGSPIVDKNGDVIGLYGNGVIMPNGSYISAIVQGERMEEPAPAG
Hsc70 ATP site = Hsc70 inhibitors, probe displacement, primary screen, biochemical, fluorescence polarization (AID 568). Hsc70 fluorescence polarization, probe displacement; higher % means a stronger effect; strong numbers were not always called active. one-dose displacement, % at 20 µM; IC50 in µM for titrated hits. 83,000 tested, under 10 active;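 active = displacement above 50% without optical interference and an IC50 on retest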;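 also: ATPase domain with a fluorescein-tagged ATP probe; 0% = vehicle and 100% = excess ADP; read after one hour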
MT1-MMP reporter = MT1-MMP gene expression reporter suppression – cell-based, luciferase reporter, luminescence (AID 618); calls from a first round at 10 µM; hits with a dose series show EC50 in µM; MT1-MMP promoter luciferase reporter cells, luminescence; 87,000 tested, 0.62% active;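 active = over half of the reporter light lost at 10 µM or EC50 under 50 µM; inactive = the rest and hits that failed the dose series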;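 also: actives suppress MT1-MMP promoter-driven transcription so potencies describe inhibitors; HT1080 fibrosarcoma cells; overnight exposure; toxic or luciferase-blocking compounds were not removed from the actives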
* = called active by the depositor; i = inactive; . = not tested or not shown; + = active, no number. Some of the compounds tested; the hit share may differ from the screen's.

SMILES	WNV protease inh	Hsc70 ATP site	MT1-MMP reporter
COC(=O)C1=C(C)OC(N)=C(C#N)C1c1ccccc1 (stereo unspecified)	-0.4	0.1%	i
c1ccc(Oc2cc(-n3cccn3)ncn2)cc1	-0.93	-4.8%	i
CC(C)c1ccc(NC(=O)C(c2ccccc2)N2CCN(C(=O)c3ccco3)CC2)cc1 (stereo unspecified)	-1	2.9%	i
CCCn1c(N)c(C(=O)COC(=O)c2c(C)noc2C)c(=O)n(C)c1=O	2.4	6.8%	i
CN(CCNC(=O)C1CC(=O)N(c2ccc(F)c(Cl)c2)C1)Cc1ccccc1 (stereo unspecified)	0.12	2.0%	i
O=C(NCCc1ccc(Cl)cc1)C1CCN(S(=O)(=O)c2ccc(-n3cnnn3)cc2)CC1	0.27	-5.2%	i
O=C1NCCCC1C(=O)N1CCN(C(=O)c2ccco2)CC1 (stereo unspecified)	-0.11	-1.7%	i
N=c1c(C(=O)NCc2ccc(F)cc2)cc2c(=O)n3ccccc3nc2n1CC1CCCO1 (stereo unspecified)	1.6	2.8%	i
CCOC(=O)N1CCN(c2c(NCc3ccccc3OC)c(=O)c2=O)CC1	0.24	0.5%	i
Cc1cc(Br)ccc1NC(=O)CNC(=O)CN1C(=O)NC2(CCCCCC2)C1=O	1.5	-5.3%	i
O=C(CSc1nc2ccccc2c(=O)n1Cc1ccco1)N1CCCCCC1	-1.1	7.0%	i
Cc1cc(NC(=O)COc2cccc(Oc3ccccc3)c2)no1	-0.75	-1.1%	i

The final two compounds of the part above come first, to join the parts.
SMILES	WNV protease inh	Hsc70 ATP site	MT1-MMP reporter
O=C(CSc1nc2ccccc2c(=O)n1Cc1ccco1)N1CCCCCC1	-1.1	7.0%	i
Cc1cc(NC(=O)COc2cccc(Oc3ccccc3)c2)no1	-0.75	-1.1%	i
N#Cc1nc(-c2cccs2)oc1NCc1ccccc1Cl	0.25	-6.6%	i
CCCCCSc1nc(O)cc(=O)[nH]1	0.27	-2.1%	i
Cc1cc2ccccc2c(=O)n1CC(=O)N(C)c1ccc(F)cc1	-0.33	-2.8%	i
Cc1ccc(N(C(=O)CNC(=O)c2ccco2)C(C(=O)NCC2CCCO2)c2ccccc2)cc1 (stereo unspecified)	-0.66	2.9%	i
O=C(COc1ccc(=O)n(-c2ccccc2)n1)Nc1ccccc1	0.02	4.5%	i
O=C(CCN1C(=O)c2ccccc2S1(=O)=O)NCc1ccco1	-0.6	1.6%	i
CCCCOc1cc(C)nc(NCc2ccccc2)n1	-0.78	-2.9%	i
COc1cccc(-n2c(SCC(=O)NC(C)(C)C)nnc2-c2ccoc2C)c1	0.92	-8.2%	i
O=C(Nc1cccnc1)C1OCCc2ccccc21 (stereo unspecified)	1.6	-1.9%	i
COc1ccccc1CNC(=O)C1CC(=O)N(C2CCCC2)C1 (stereo unspecified)	1.2	0.1%	i
Cc1nn(-c2ccccc2)c(C)c1C(=O)OC/C(O)=C(\C#N)c1nc2ccccc2[nH]1	2	-30%	i
Cc1ccc(CN2C(=O)CCC2C(=O)NCCN(CC(C)C)CC(C)C)cc1 (stereo unspecified)	1.9	0.6%	i
COc1ccccc1N1CCN(C(=O)c2cn(-c3ccccc3)nc2-c2cccnc2)CC1	-0.65	-0.5%	i
CCCCSc1nc2c(cnn2-c2ccc(Cl)cc2)c(=O)[nH]1	-0.58	7.9%	i
O=c1cc(CSc2ccc(Cl)cc2)nc2nc[nH]n12	1.8	2.5%	i
Cc1csc(NC(=O)c2sc3nc(-c4cccs4)ccc3c2N)n1	-0.38	-38%	i
O=C(CN(Cc1ccc(F)cc1)C(=O)c1ccco1)NCc1ccc(F)cc1	-1	-1.5%	i
CN(c1cccc(NC(=O)COc2ccc(Cl)cc2Cl)c1)S(C)(=O)=O	.	-1.6%	i
CCOc1ccc(N(CC(=O)NCC(C)C)S(C)(=O)=O)cc1	0.11	-2.0%	i
COc1ccc(C(=O)Nc2cccnc2)cc1C(=O)Nc1cccnc1	0.04	-0.9%	i
Cc1cc(C)c(S(=O)(=O)Nc2ccc(O)cc2)c(C)c1	-0.33	-3.5%	i
COc1ccccc1CN1C(=O)[C@@H]2C(CCC(N)=O)NC3(C(=O)Nc4c3ccc(Cl)c4C)[C@@H]2C1=O (stereo partly specified)	-0.54	-3.8%	i
CCC(C)(C(=O)NC1CCCCC1)N(Cc1ccco1)C(=O)CNC(=O)c1ccccc1 (stereo unspecified)	-0.11	-3.3%	i
COC(=O)c1nc2nc(C)cc(C(F)(F)F)n2n1	0.19	-3.9%	i
O=C(CCS(=O)(=O)c1cccc2nsnc12)NCc1ccccc1Cl	.	-2.1%	i
O=C(Oc1cccc2c(=O)[nH]ccc12)c1ccccc1	-0.76	-0.4%	i
COc1ccc(N2CCN(Cc3cc(=O)oc4c3ccc3ccccc34)CC2)cc1	-0.32	3.1%	i
c1ccc(Cn2nnnc2C(c2ccccc2)N2CCN(c3nc4ccccc4s3)CC2)cc1 (stereo unspecified)	-0.37	2.1%	i
O=C(Cc1ccccc1)N1CCC(c2nc3ccccc3[nH]2)CC1	-0.14	3.9%	i
CN(C)CC(O)COc1cccc(OCC(O)CN(C)C)c1 (stereo unspecified)	0.12	-2.6%	i
COc1ccc(N=C/C=C2\C=C(c3ccccc3)OC(C)(C)O2)cc1	.	-3.7%	i
CCOC(=O)c1c(NC(C)=O)sc2c(O)cccc12	-0.28	8.1%	i
CCCCNC(=O)C1CCCN1C(=O)NC1CCCCC1 (stereo unspecified)	.	5.5%	i
CC1CC(C)CN(C(=O)c2ccncc2)C1 (stereo unspecified)	.	3.2%	i
CC1CCN(CCCCOc2ccc(C(=O)c3ccccc3)cc2)CC1	.	0.6%	i
CCC(C)N1C(=O)CCC1C(=O)N1CCN(c2ccccc2F)CC1 (stereo unspecified)	.	-1.2%	i
CCc1cc2cc3c(cc2nc1SCC(=O)Nc1cc(C)on1)OCO3	0.96	1.0%	i
O=[N+]([O-])c1ccc(-c2csc3[n+]2CCS3)cc1	.	3.0%	i
COc1ccc(N2C(=O)CSC2c2ccc3c(c2)OCO3)c(OC)c1 (stereo unspecified)	-0.18	-9.1%	i
CCOc1ccc2[nH]c(=O)c(CN(Cc3cccs3)Cc3nnnn3C(C)(C)CC)cc2c1	0.71	-0.1%	i
CC1(C)CC(O)C(C)(C)N1O (stereo unspecified)	0.35	-1.3%	i
COc1ccc(NC(=O)C2CCC(N3C(=O)C4C5C=CC(C5)C4C3=O)CC2)cc1 (stereo unspecified)	.	-3.1%	i
COC(=O)c1ccc2c(c1)N(C)C(=O)CS2	.	1.1%	i
CCCC(C1=C(O)CC(C)(C)CC1=O)C1C(=O)CC(C)(C)CC1=O (stereo unspecified)	.	5.1%	i
Cc1[nH]c(=O)[nH]c(=O)c1S(=O)(=O)NCCc1ccc(S(N)(=O)=O)cc1	0.24	-0.4%	i
CCN(Cc1cc2ccc(C)cc2[nH]c1=O)C(=O)c1cccnc1	-0.37	2.2%	i
CC(C)c1nnc(SCC(=O)Nc2ccc3c(c2)OCO3)n1C	.	-4.2%	i
CCOC(=O)c1ccc(NC(=O)CC2C(=O)N(c3ccc(F)cc3)C(=O)N2CCCOC)cc1 (stereo unspecified)	-0.08	0.5%	i
Cc1noc2ncnc(Sc3c(Cl)cccc3Cl)c12	.	-5.1%	i
COc1ccc(CN2CC(C(=O)NCc3ccccn3)CC2=O)cc1 (stereo unspecified)	-0.95	8.5%	i
C/C(N)=C(/C#N)C(=O)COC(=O)C1CCC(C(C)(C)C)CC1 (stereo unspecified)	.	4.3%	i
c1cc2c(cc1C1=Nn3c(nnc3C3CCCCC3)SC1)OCO2	1.5	3.8%	i
O=C(Nc1nnc(CC(c2ccccc2)c2ccccc2)s1)c1ccco1	.	1.1%	i
CSc1nnc(NC(=O)c2ccc(C)c(S(=O)(=O)N3CCOCC3)c2)s1	0.36	-1.6%	i
O=S(=O)(NCC1CCCO1)c1ccc(Oc2ccccc2)cc1 (stereo unspecified)	-0.84	-1.9%	i
CC(C)Cn1c(-c2ccc(F)cc2)n[nH]c1=S	0.24	-3.2%	i
O=C(N/N=C/c1ccc(OCc2ccccc2)cc1)c1cccs1	.	2.5%	i
COc1c(Br)cc2c(C)c(C(=O)O)oc2c1Br	-1.1	5.0%	i
COc1ccc(Br)cc1CN1CCCC(C(=O)N2CCCCCC2)C1 (stereo unspecified)	1.8	-7.7%	i
C=CCN1C(=O)CC(C(=O)NC)SC1=Nc1ccc(C(=O)OCC)cc1 (stereo unspecified)	-0.48	2.2%	i

Other structures follow.
SMILES	WNV protease inh	Hsc70 ATP site	MT1-MMP reporter
c1nc(NCCN2CCOCC2)c2c3c(sc2n1)CCCCC3	0.29	3.6%	i
CCOC(=O)c1c(C)n(O)c2ccc(Cl)cc2c1=O	-1.5	3.4%	i
COC(=O)c1ccccc1NC(=O)c1noc2c1CC(C(C)(C)C)CC2 (stereo unspecified)	-0.74	6.7%	i
O=C1CCCc2c1cc(C(=O)NCc1ccco1)c(=O)n2-c1ccccc1	0.65	-6.3%	i
COc1ccc(S(=O)(=O)N(C)Cc2cccs2)cc1Br	.	0.7%	i
C=CCn1c(SCC(N)=O)nnc1-c1cccc(Br)c1	-0.91	-2.0%	i
c1ccc2c(c1)oc1c(Nc3ccc4c(c3)OCO4)ncnc12	-0.1	-4.6%	i
C=CCn1c(SCc2ccccc2C#N)nnc1-c1cc(Br)ccc1O	-0.48	0.8%	i
O=C(CSc1nnnn1-c1ccccc1)N1CCc2ccccc2C1	-0.21	5.0%	i
COc1ccc(N2C(=O)C3CCCN3C2c2cccc(C)c2)cc1Cl (stereo unspecified)	-0.33	5.8%	i
CC(C)CC(O)(CC(C)C)C(=O)NNc1ccccc1	.	0.4%	i
CCCn1c(N2CCN(CC(=O)c3c(C)n(C)c4ccccc34)CC2)nc2c1c(=O)[nH]c(=O)n2C	1.8	-1.6%	i
COc1ccccc1N1CCN(C2CCN(C(=O)c3cccs3)CC2)CC1	-0.41	-0.2%	i
CC(=NCc1ccncc1)C1=C(O)c2ccccc2C1=O	.	-1.5%	i
Cc1ccc(S(=O)(=O)N(CC(=O)N2CCC(C(N)=O)CC2)Cc2ccc(F)cc2)cc1	1.3	0.2%	i
CCn1c(SCC(=O)Nc2ccc(C(C)=O)cc2)nc2ccccc21	-0.01	-0.9%	i
Cn1cnnc1SCC(=O)Nc1ccccc1C(=O)NC1CCCC1	0.59	3.4%	i
c1ccc(-c2nc(CSc3n[nH]c(-c4cccs4)n3)cs2)cc1	.	-0.3%	i
CCOc1ccc(-c2noc(COC)n2)cc1OC	1.3	4.3%	i
O=C(Nc1ccccn1)NC1CCCCC1	.	-5.2%	i
CCOC(=O)C1(C)NC(c2ccc(N(C)C)cc2)C2C(=O)N(c3ccc(OC)cc3)C(=O)C21 (stereo unspecified)	1.6	-10%	i
Cc1onc(-c2c(F)cccc2Cl)c1C(=O)Nc1sc2c(c1C#N)CCC(C(C)(C)C)C2 (stereo unspecified)	.	-1.3%	i
O=C(OCC1CC(c2ccccn2)=NO1)c1ccc(Br)cc1 (stereo unspecified)	0.31	2.9%	i
Cc1cccc(-c2c3c(=O)n(C)c(=O)n(C)c3cn2CC2CCCO2)c1 (stereo unspecified)	1.8	1.3%	i
Cc1ccc(S(=O)(=O)C2(C(=O)Nc3nccs3)CC2)cc1	0.36	-0.8%	i
O=C(Nc1ccccc1)NC1(C(=O)N2CCN(C(=O)c3ccco3)CC2)CCCCC1	-1.4	4.1%	i
CCOC(=O)Cn1c(-c2ccccn2)nc2ccccc21	1.4	-2.2%	i
O=C(CCC1CCCC1)Nc1ccc(OCC(=O)N2CCOCC2)cc1	.	4.0%	i
O=S(=O)(c1ccc(Cl)nc1)N1CCN(Cc2ccc3c(c2)OCO3)CC1	.	0.7%	i
CCn1ncc(NC(=O)Nc2cccc(C(F)(F)F)c2)c1C(N)=O	-0.3	-2.3%	i
O=C(CCCCCn1c(=O)[nH]c2ccsc2c1=O)N1CCCCC1	-0.52	1.4%	i
O=C1c2ccccc2C(=O)C1c1ccc2ccccc2n1	0.86	-10%	+
c1cn2cc(CSC3CCCCC3)nc2s1	0.0055	5.9%	i

Of the compounds above, 13 contain a Cl atom.
SMILES	WNV protease inh	Hsc70 ATP site	MT1-MMP reporter
CN(CCNC(=O)C1CC(=O)N(c2ccc(F)c(Cl)c2)C1)Cc1ccccc1 (stereo unspecified)	0.12	2.0%	i
O=C(NCCc1ccc(Cl)cc1)C1CCN(S(=O)(=O)c2ccc(-n3cnnn3)cc2)CC1	0.27	-5.2%	i
N#Cc1nc(-c2cccs2)oc1NCc1ccccc1Cl	0.25	-6.6%	i
CCCCSc1nc2c(cnn2-c2ccc(Cl)cc2)c(=O)[nH]1	-0.58	7.9%	i
O=c1cc(CSc2ccc(Cl)cc2)nc2nc[nH]n12	1.8	2.5%	i
CN(c1cccc(NC(=O)COc2ccc(Cl)cc2Cl)c1)S(C)(=O)=O	.	-1.6%	i
COc1ccccc1CN1C(=O)[C@@H]2C(CCC(N)=O)NC3(C(=O)Nc4c3ccc(Cl)c4C)[C@@H]2C1=O (stereo partly specified)	-0.54	-3.8%	i
O=C(CCS(=O)(=O)c1cccc2nsnc12)NCc1ccccc1Cl	.	-2.1%	i
Cc1noc2ncnc(Sc3c(Cl)cccc3Cl)c12	.	-5.1%	i
CCOC(=O)c1c(C)n(O)c2ccc(Cl)cc2c1=O	-1.5	3.4%	i
COc1ccc(N2C(=O)C3CCCN3C2c2cccc(C)c2)cc1Cl (stereo unspecified)	-0.33	5.8%	i
Cc1onc(-c2c(F)cccc2Cl)c1C(=O)Nc1sc2c(c1C#N)CCC(C(C)(C)C)C2 (stereo unspecified)	.	-1.3%	i
O=S(=O)(c1ccc(Cl)nc1)N1CCN(Cc2ccc3c(c2)OCO3)CC1	.	0.7%	i
